# Ecoli growth – E. coli growth inhibition, primary screen, OD600. OD600 absorbance (concentration not given with the values). Escherichia coli growth, 23 h; hits give low values. 330,000 compounds, 0.21% hits. AID 1053175, 2014;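 active = OD600 absorbance below the run mean of sample wells minus 3.6 SD, in any replicate, cut at about 0.56 in these data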;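 also: stock transfer was 300 nL into about 60 µL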
# Ecoli rRNA inh – reduced GFP signal of wild-type E. coli, primary screen, bacterial rRNA inhibitor project, GFP/RFP fluorescence, OD600, single point; GFP signal change (wild-type ribosome), % (concentration not given with the values); 350,000 compounds, 1.6% hits; AID 720706, 2013; E. coli WT GFP vs humanized-ribosome RFP mutants, 24 h; hits give low values; DMSO median 0, no signal -100;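 active = significant combined selectivity score with lowered wild-type GFP, culture density cut under 30%, mutant RFP and density less affected; inactive = any of these conditions unmet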; also: one replicate is shown; some compounds called inactive have numbers as strong as hits
# ALR inh – inhibitors of human ALR sulfhydryl oxidase, primary screen, biochemical, H2O2 detection, HRP-luminol luminescence, single point | AID 485317, 2010 | inhibition, % (test concentration not listed) | purified ALR, DTT oxidation | 290,000 compounds, 3.8% hits | FAD-linked sulfhydryl oxidase ALR (Homo sapiens), P55789;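 active = mean and each replicate at 75% or more; inconclusive = only one of the two met; inactive = neither met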;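 also: stock transfer was 7.5 nL into about 7.5 µL; 0% = neutral wells and 100% = wells with inactivated enzyme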
# HNF4A DNA FP – change in binding of human HNF4A to DNA, primary screen, biochemical, fluorescence polarization, FITC-DNA; Hepatocyte nuclear factor 4-alpha (Homo sapiens), P41235; 1 h; AID 1224865, 2016; activity change, % at 10 µM; 360,000 compounds, 0.3% hits; in the data active = activity change above about 30%, passing the limit was not always enough;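 also: controls were the assay level and a saturating level of protein; the project sought stronger binding though the title names inhibitors; some compounds called inactive have numbers as strong as hits; positive values seem to mean higher polarization but the record does not say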
# Target sequence (P41235 whole entry, looked up): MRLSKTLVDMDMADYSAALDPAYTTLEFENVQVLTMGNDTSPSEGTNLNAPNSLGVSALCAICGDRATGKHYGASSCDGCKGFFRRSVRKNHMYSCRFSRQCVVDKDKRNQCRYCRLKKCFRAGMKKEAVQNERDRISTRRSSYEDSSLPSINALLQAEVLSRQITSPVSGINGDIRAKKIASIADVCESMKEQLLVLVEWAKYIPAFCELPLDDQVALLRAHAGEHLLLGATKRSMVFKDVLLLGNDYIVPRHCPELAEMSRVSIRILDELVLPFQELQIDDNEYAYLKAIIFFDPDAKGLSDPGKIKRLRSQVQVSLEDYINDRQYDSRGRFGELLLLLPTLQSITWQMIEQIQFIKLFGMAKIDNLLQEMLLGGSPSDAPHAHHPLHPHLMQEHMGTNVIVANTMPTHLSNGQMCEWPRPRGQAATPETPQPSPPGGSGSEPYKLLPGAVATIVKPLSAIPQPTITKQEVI
# AF4-AF9 inh – inhibitors of AF4 peptide binding to AF9, primary screen, biochemical, AlphaScreen, biotin-AF4 peptide, FLAG-AF9, single point; Protein AF-9 (Homo sapiens), P42568; inhibition, % at 10 µM; 350,000 compounds, 0.47% hits; AID 651704, 2012;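 active = every replicate reaching a set inhibition limit, whatever the replicate mean, cut at about 25% in these data; inconclusive = mean inhibition reaches that limit but some replicates miss it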;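 also: 0% = plate neutral control median and 100% = total signal loss; the record names both 10 and 1 µM as test concentration; the first replicate is given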
# Target sequence (P42568 whole entry, looked up): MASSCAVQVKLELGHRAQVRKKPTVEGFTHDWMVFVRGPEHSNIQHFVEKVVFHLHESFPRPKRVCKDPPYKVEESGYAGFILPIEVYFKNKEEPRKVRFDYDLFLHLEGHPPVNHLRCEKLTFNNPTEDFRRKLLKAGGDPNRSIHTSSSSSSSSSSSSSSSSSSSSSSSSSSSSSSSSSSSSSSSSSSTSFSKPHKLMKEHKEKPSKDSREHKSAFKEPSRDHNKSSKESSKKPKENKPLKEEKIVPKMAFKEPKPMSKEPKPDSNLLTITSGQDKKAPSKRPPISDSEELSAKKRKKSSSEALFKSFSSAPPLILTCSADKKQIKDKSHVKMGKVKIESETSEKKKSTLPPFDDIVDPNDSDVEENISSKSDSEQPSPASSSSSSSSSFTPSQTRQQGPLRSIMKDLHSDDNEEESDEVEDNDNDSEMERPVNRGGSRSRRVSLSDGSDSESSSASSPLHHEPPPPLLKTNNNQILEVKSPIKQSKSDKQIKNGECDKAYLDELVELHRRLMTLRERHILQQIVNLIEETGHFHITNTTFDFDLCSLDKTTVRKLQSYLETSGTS
# Vif TR-FRET – inhibitors of Vif binding to APOBEC3G peptide, primary screen, biochemical, TR-FRET, GST-Vif 1-94, biotin-A3G peptide, dose response retest (AID 1117319); 260,000 compounds, 0.57% hits; Virion infectivity factor (Human immunodeficiency virus type 1 group M subtype B (isolate …; TR-FRET GST-Vif / biotin-A3G peptide binding; higher % means a stronger effect; test concentration not given here; strong numbers were not always called active; inhibition, %, or IC50 in µM where a hit was titrated;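 active = above the screen mean plus three standard deviations and confirmed in dose response; inconclusive = results disagree or hit not tested in dose response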;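 also: Vif residues 1-94 fused to GST binding biotinylated APOBEC3G peptide 110-148; 0% = full assay without inhibitor and 100% = GST in place of GST-Vif; retest series ran down from 100 µM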
# FGF22 binding – binders of human FGF22 protein, primary screen, FGF22 synaptogenesis inhibitor project, biophysical, thermal shift, single point | calls only at 9.99 µM | recombinant FGF22 thermal shift, SYPRO orange fluorescence; percent of sucrose octasulfate shift, DMSO zero | 340,000 compounds, 1.5% hits | AID 651658, 2012;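 active = melting point raised past a set limit in the mean and every replicate; inconclusive = no clear call; three in four hits are not shown here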
# Ecoli rRNA inh OD600 – also measured in Ecoli rRNA inh; calls as there; OD600 change, %; measured here: OD600 growth;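 optical density of the mix in the first replicate; 0 = DMSO median and -100 = no signal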
# Ecoli rRNA inh RFP – further read-out of Ecoli rRNA inh, marked with its call; RFP signal change, %; measured here: RFP humanized mutant strains;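 first replicate; 0 = DMSO median and -100 = no signal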
# An asterisk follows results filed as active; i = inactive; ? = inconclusive; · = no result given; + = active, no number; & = joins results of further samples. Some of the compounds tested; count on the stated rates, not on these rows.
cpd	Compound	Ecoli growth	ALR inh	HNF4A DNA FP	Vif TR-FRET	FGF22 binding	Ecoli rRNA inh OD600	Ecoli rRNA inh RFP	AF4-AF9 inh	Ecoli rRNA inh
1	COc1ccc(S(=O)(=O)N2CCCCCC2)cc1C(=O)N(C)CC(=O)Nc1ccccc1Br	0.69	-5	1.5	0%	i	-10	0.5	-47	-10
2	COc1ccc2c(CC(=O)NNC(=O)c3ccc(O)cc3)coc2c1	0.67	30	-1.9	0%	+	4	1.0	0.0	4
3	CCSc1ccc([C@@H]2[C@@H]3C(=O)N(C)C(=O)[C@@H]3[C@]3(C(=O)OC)CCCCN23)cc1OC	·	-4	3.0	·	i	-16	0.7	-1.1	-10
4	C[C@@H]1CN([C@H](C)CO)C(=O)c2cc(-c3cncnc3)cnc2O[C@@H]1CN(C)C(=O)Cc1ccccn1	·	·	·	·	i	14	-1.6	-4.2	2
5	COc1ccc(-n2c(SCC(=O)/C(C#N)=C(\C)N)nc3ccccc3c2=O)cc1OC	0.68	-8	-2.2	·	i	-5	-0.5	4.1	12
6	Cc1ccc(CSCc2ccc(C(=O)NCC3CCCO3)o2)cc1 (configuration not stated)	0.72	1	5.3	-7%	i	4	0.6	4.4	-2
7	COC(=O)c1ccc(Nc2nc(N3CCOCC3)nc(N3CCOCC3)n2)cc1	0.72	3	2.9	·	i	10	-6.8	1.1	1
8	COC(=O)c1ccc(COc2cccc3c2OC(C)(C)C3)cc1	0.7	-7	0.0	·	i	11	-3.2	-3.1	-3
9	N#CC1C(=O)NC(c2ccccc2)=CC1c1ccccc1 (configuration not stated)	0.72	·	-1.9	-1%	i	·	·	-3.2	·
10	C[C@@H]1CN([C@H](C)CO)S(=O)(=O)c2ccc(-c3ccncc3)cc2O[C@H]1CN(C)C(=O)CN(C)C	·	·	·	·	i	11	1.8	-2.5	5
11	COc1ccc(CCNC(=O)c2nnc(Cc3ccc(Cl)cc3)o2)cc1OC	0.68	-5	-1.7	-10%	i	0	3.1	4.4	3
12	CO[C@@H]1CN(C)C(=O)c2cc(NS(=O)(=O)c3ccccc3)ccc2OC[C@@H](C)NC[C@@H]1C	·	·	·	·	i	3	-1.9	-2.4	4
13	CCOc1ccc2nc(NC(=O)C34CC5CC(CC(NC(C)=O)(C5)C3)C4)sc2c1	0.72	-12	-1.0	·	i	-27*	0.5*	3.0	-33*
14	Cc1ccc(S(=O)(=O)Nc2cccc3c2O[C@@H](CN(C)Cc2ccc(C(=O)O)cc2)[C@H](C)CN([C@@H](C)CO)C3=O)cc1	·	·	·	·	i	5	-1.2	-1.9	6
15	O=C(Nc1ccccc1)C1CCN(C(=O)c2ccccc2)CC1	0.72	-3	-1.6	4%	·	·	·	·	·
16	Cc1noc(C)c1NC(=O)Nc1ccc2c(c1)C(=O)N([C@@H](C)CO)C[C@@H](C)[C@@H](CN(C)S(=O)(=O)c1ccc(F)cc1)O2	·	·	·	·	i	7	-1.1	0.5	2
17	Cc1c(C(=O)N2CCOCC2)[nH]c2ccc(OCc3ccccc3)cc12	0.74	·	1.5	-3%	·	·	·	·	·
18	OCCC1CN(Cc2c(O)ccc3ccccc23)CCN1CCc1ccccc1 (configuration not stated)	0.71	-1	2.4	·	i	2	12	-1.5	1
19	COc1ccccc1CNC(=O)c1ccc(CNc2c(N3CCCC3)c(=O)c2=O)cc1	0.72	3	5.0	-6%	i	-5	-1.1	-1.8	0
20	Cc1ccc(S(=O)(=O)N(Cc2ccccc2)Cc2ccco2)cc1	0.72	1	-3.8	12%	·	·	·	·	·

# Carrying on.
cpd	Compound	Ecoli growth	ALR inh	HNF4A DNA FP	Vif TR-FRET	FGF22 binding	Ecoli rRNA inh OD600	Ecoli rRNA inh RFP	AF4-AF9 inh	Ecoli rRNA inh
21	CC(NC(=O)c1ccccc1Cl)C(=O)N1CCN(Cc2ccc3c(c2)OCO3)CC1 (configuration not stated)	0.68	·	2.0	-6%	i	7	1.8	0.2	15
22	COC(=O)CCCCC1=CCC2C(=O)C=C(O)C2C1 (configuration not stated)	·	·	-21	·	i	28	-0.4	-2.4	7
23	O=C(NCCc1ccccc1)[C@@H]1[C@@H](CO)[C@@H]2Cn3c(cccc3=O)[C@@H]2N1Cc1ccccc1	·	·	·	·	i	-9	-1.8	1.6	-2
24	O=C(CCC(=O)N/N=C/c1ccccc1O)NCc1ccccc1	·	6	0.3	-17%	·	·	·	·	·
25	C[C@@H]1CN([C@@H](C)CO)C(=O)c2cc(-c3ccc(F)cc3)cnc2O[C@H]1CN(C)C(=O)c1ccccn1	·	·	·	·	i	4	-0.1	-1.8	-1
26	CO/N=C(\C(=O)N[C@@H]1C(=O)N2C(C(=O)O)=C(COC(C)=O)CS[C@H]12)c1csc(N)n1 (stereo in doubt)	·	-9	-17&-1.8&-7.2	·	i	22	14	5.6&0.1&-15	-20
27	O=C(Nc1ccc(OC(F)F)c(Cl)c1)[C@@H]1CCCN1C(=O)c1cccs1	·	-3	3.7	10%	·	·	·	·	·
28	C[C@H]1CN([C@@H](C)CO)C(=O)c2cc(NC(=O)CCC(F)(F)F)ccc2O[C@H]1CN(C)Cc1ccc(Oc2ccccc2)cc1	·	·	·	·	i	-32	20	4.2	-16
29	COc1ccccc1Nc1nc2nonc2nc1N1CCCCC1C (configuration not stated)	0.68	·	0.7	·	i	2	2.2	9.8	4
30	O=C(COC(=O)COc1ccccc1[N+](=O)[O-])NCc1ccc2c(c1)OCO2	0.71	-12	-0.6	7%	i	10	3.4	-4.2	10
31	C[C@H](CO)N1C[C@H](C)[C@@H](CN(C)Cc2ccccc2)Oc2c(NC(=O)c3cnccn3)cccc2C1=O	·	·	·	·	i	12	-3.3	-25	0
32	O=C([O-])c1cc(-c2ccccc2)cc(-c2ccccc2)[n+]1Cc1ccccc1	0.65	-8	·	·	i	-51	-19	3.4	-34
33	CCN(CC)C(=O)C(=O)c1c(-c2ccccc2)[nH]c2ccccc12	0.7	·	2.5	9%	·	·	·	·	·
34	Cc1ccc(OCCC(=O)OCC(=O)Nc2cc(C)cc(C)c2)cc1	0.72	6	-0.5	-13%	i	·	·	-2.3	·
35	Cc1ccc(S(=O)(=O)Nc2ccc3c(c2)C(=O)N([C@@H](C)CO)C[C@@H](C)[C@@H](CN(C)C(=O)Nc2c(C)noc2C)OCCCC[C@@H](C)O3)cc1	·	·	·	·	i	-2	-2.3	-2.2	-2
36	COc1ccc(/C=C/C(=O)OCC(=O)c2c(N)n(C)c(=O)n(C)c2=O)c(OC)c1	0.69	-5	0.8	14%	i	·	·	0.8	·
37	C[C@H](O)C#Cc1ccc2c(c1)O[C@@H](CN(C)Cc1ccncc1)[C@H](C)CN([C@@H](C)CO)S2(=O)=O	·	·	·	·	i	-16	-2.2	-0.8	-6
38	COc1ccc(C2/C(=C(/O)c3ccc4c(c3)CC(C)O4)C(=O)C(=O)N2CCCn2ccnc2)cc1OC (configuration not stated)	·	·	3.2	·	i	14	0.4	2.9	10
39	S=C(NCc1cccnc1)c1ccccc1	0.6	-8	6.8	·	i	-1	-2.6	-2.6	-3
40	COc1ccccc1S(=O)(=O)N[C@@H]1CC[C@H](CC(=O)NCc2cc(F)cc(F)c2)O[C@H]1CO	·	·	·	·	i	-3	-3.0	-1.6	-1

# Single entries from the results shown:
# Ecoli rRNA inh RFP result of COc1ccc(C2/C(=C(/O)c3ccc4c(c3)CC(C)O4)C(=O)C(=O)N2CCCn2ccnc2)cc1OC (configuration not stated) is entered as 0.4
# Ecoli rRNA inh result of C[C@H]1CN([C@@H](C)CO)C(=O)c2cc(NC(=O)CCC(F)(F)F)ccc2O[C@H]1CN(C)Cc1ccc(Oc2ccccc2)cc1 is entered as -16

# More compounds
cpd	Compound	Ecoli growth	ALR inh	HNF4A DNA FP	Vif TR-FRET	FGF22 binding	Ecoli rRNA inh OD600	Ecoli rRNA inh RFP	AF4-AF9 inh	Ecoli rRNA inh
41	CC(C)(C)NC(=O)c1cc(Cl)ccc1[N+](=O)[O-]	0.67	1	-2.0	2%	·	·	·	·	·
42	Cc1csc(SCC(=O)Nc2ccccn2)n1	0.76	9	-2.5	7%	·	·	·	·	·
43	COc1cc2c(cc1OC)CN(C(=O)c1ccc(OC)c(S(=O)(=O)N3CCOCC3)c1)CC2	0.7	1	-2.8	-7%	·	·	·	·	·
44	S=C(Nc1ccccc1Cl)NC1CCCCCC1	0.63	37	-1.4	2%	·	-73	-15	1.0	-53
45	COC(=O)c1ccc(CNC(=O)COC(=O)CCC2CCCC2)cc1	0.67	-2	-0.2	-4%	i	-5	-5.4	-2.3	7
46	CCOC(=O)CN1CC23C=CC(O2)C(C(=O)Nc2ccc(OC)cc2OC)C3C1=O (configuration not stated)	0.7	15	5.0	0%	i	6	-1.6	-3.8	9
47	Cc1ccc(-c2nn(C)c(=O)c3ccccc23)cc1CNC(=O)CN1CCOCC1	0.69	-9	-2.3	2%	·	·	·	·	·
48	CC(=O)c1c(C)[nH]c(C(=O)Nc2cccc(S(=O)(=O)N3CCOCC3)c2)c1C	0.66	2	5.5	-2%	·	·	·	·	·
49	COc1ccc(N2C(=O)c3ccccc3NC2c2cccnc2)cc1 (configuration not stated)	0.64	1	-0.4	9%	i	10	1.5	0.6	9
50	O=C(C[C@@H]1C[C@@H]2c3cc(NS(=O)(=O)c4ccc(F)cc4)ccc3O[C@@H]2[C@H](CO)O1)NCCN1CCCCC1	·	·	·	·	i	0	-2.7	5.5	2
51	Cc1ccc(N2C(=O)CC3(CC4C=CC3C4)C2=O)cc1 (configuration not stated)	0.71	-11	-7.6	-8%	·	·	·	·	·
52	Cc1[nH]c2ccccc2c1/C=N\NC(=O)CNc1ccc2c(c1)OCO2	·	5	-1.4	?	i	18	8.8	-3.3	3
53	N#CN=C1CCCCCN1CC(N)=O	0.73	-7	1.0	2%	·	·	·	·	·
54	O=C(NCc1ccccc1)c1cc(C2CCCN(C(=O)c3ccc4c(c3)CCO4)C2)on1 (configuration not stated)	·	·	-3.5	·	i	-14	-2.3	-1.1	-9
55	O=C(Nc1nnc(C2CC2)s1)C1=NN(C2CCS(=O)(=O)C2)C(=O)CC1 (configuration not stated)	0.62	-6	2.7	2%	i	4	-3.2	-1.2	7
56	CCNC(=O)C[C@@H]1C=C[C@@H](NC(=O)C2CCOCC2)[C@@H](CO)O1	·	·	·	·	i	9	-2.1	-2.1	1
57	COc1cc(/C=C/CN2CCN(CCC(C)C)C(CCO)C2)ccc1O (configuration not stated)	0.64	94*	-0.5	12%	i	17	6.8	4.3	10
58	N#C[C@@H]1[C@@H](c2ccc(C#Cc3cccc(F)c3)cc2)[C@H](CO)N1C(=O)C1CCCC1	·	·	·	·	i	3	1.1	-0.9	1
59	O=C(C1CCN(c2ncnc3c2nc2n3CCCCC2)CC1)N1CCN(c2ccccc2F)CC1	0.73	-3	3.5	·	i	-10	2.9	2.6	-7
60	CCN(C(=O)C12CC3CC(CC(C3)C1)C2)C1CCS(=O)(=O)C1 (configuration not stated)	0.67	4	-0.7	-4%	i	2	-2.6	1.4	4
61	COc1cccc2c(=O)c(SC(F)(F)C(F)C(F)(F)F)c(C)[nH]c12 (configuration not stated)	0.71	-7	-0.4	-7%	·	·	·	·	·

# Bioassay records as filed in PubChem BioAssay.
